Compound activity as filed in PubChem BioAssay.
HSV replic up – enhancers of HSV replication in host cells, fold increase, host cell viability; HSV replication augmentation in cells; maximum fold increase; actives 0.005% (n = 220,000);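 active means peak rise of 1.5-fold or more in the series; tested in PC3 cells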;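 further: first round at 10 µM; read as green reporter fluorescence; hits show the peak of a series up to 25 µM; 1 = signal of infected wells without compound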
RGS16-Gao HTS – modulators of RGS16 binding to Galphao, primary screen, biochemical, human proteins, multiplexed bead flow cytometry. Regulator of G-protein signaling 16 (Homo sapiens) + Guanine nucleotide-binding protein …. actives 0.38% (n = 220,000). AID 1441, 2008. bead-based flow cytometry RGS16-Galphao binding, fluorescence; actives lie on both sides. binding response (% of control), % at 10 µM;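 active means below 25% or above 175%, edge rows of some plates excepted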;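 further: Galphao activated by GDP with aluminum fluoride before binding; 100% = wells without compound and 0% = beads without RGS; some results beyond the cut were filed as inactive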
Target sequence (O15492 whole entry, looked up): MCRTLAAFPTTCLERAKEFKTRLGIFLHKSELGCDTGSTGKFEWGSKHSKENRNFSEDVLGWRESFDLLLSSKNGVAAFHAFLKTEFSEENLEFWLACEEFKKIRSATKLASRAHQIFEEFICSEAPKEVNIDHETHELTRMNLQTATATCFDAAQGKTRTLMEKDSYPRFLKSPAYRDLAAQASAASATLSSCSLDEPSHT
Target sequence (P09471 whole entry, looked up): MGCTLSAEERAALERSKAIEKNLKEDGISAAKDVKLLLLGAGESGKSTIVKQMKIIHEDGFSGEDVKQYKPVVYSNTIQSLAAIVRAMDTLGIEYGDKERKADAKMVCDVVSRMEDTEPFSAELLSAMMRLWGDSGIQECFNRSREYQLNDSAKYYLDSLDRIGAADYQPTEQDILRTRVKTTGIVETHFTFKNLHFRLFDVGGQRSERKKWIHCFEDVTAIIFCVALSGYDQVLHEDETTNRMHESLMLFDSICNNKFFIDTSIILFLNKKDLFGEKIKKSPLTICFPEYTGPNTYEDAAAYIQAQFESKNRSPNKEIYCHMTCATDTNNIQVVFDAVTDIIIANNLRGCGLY
GALR2 agonist – GALR2 receptor agonists, primary screen, cell-based; AID 803, 2007; GALR2-expressing cells, agonist activation read-out; actives 0.48% (n = 140,000); Galanin receptor type 2 (Homo sapiens), O43603; activation, %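 (tested at 5 µM)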;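 active means above mean plus 3 SD of all compounds, about 5% in these data, not always enough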;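 further: 0% = vehicle buffer wells and 100% = reference agonist at full effect; tested in CHO reporter cells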
Target sequence (O43603 whole entry, looked up): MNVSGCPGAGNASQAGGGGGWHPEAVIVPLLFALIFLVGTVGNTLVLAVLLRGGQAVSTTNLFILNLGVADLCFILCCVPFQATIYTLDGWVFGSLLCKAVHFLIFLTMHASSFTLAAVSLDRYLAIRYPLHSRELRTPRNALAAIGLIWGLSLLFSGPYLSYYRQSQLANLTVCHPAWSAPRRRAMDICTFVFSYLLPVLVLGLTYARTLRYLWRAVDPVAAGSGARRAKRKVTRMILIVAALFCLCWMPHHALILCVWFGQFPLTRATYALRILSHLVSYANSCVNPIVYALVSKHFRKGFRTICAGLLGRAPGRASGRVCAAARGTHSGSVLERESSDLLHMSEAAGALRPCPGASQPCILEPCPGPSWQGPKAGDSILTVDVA
Insulin prom inh – inhibitors of insulin promoter-driven GFP, primary screen, imaging, TRM-6 cells (human fetal islet line), eGFP reporter, cell count; reporter expression induced with tamoxifen; inhibition, % at 2 µM; actives 0.9% (n = 130,000);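 active means inhibition above the mean plus 3 SD, with well images judged a real hit on visual review, cut at about 60% in these data, passing the limit was not always enough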
PKD1 inh – inhibitors of human PKD1 kinase, biochemical, fluorescence polarization; Serine/threonine-protein kinase D1 (Homo sapiens), Q15139; PKD1 kinase fluorescence polarization assay; inhibition, %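 (about 10 µM by stock and volumes)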; actives 0.056% (n = 200,000); AID 797, 2007;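 active means inhibition of 50% or more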;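 further: controls were vehicle for no effect and a reference inhibitor for full effect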
Insulin prom inh cell count – second read-out of Insulin prom inh, no call of its own (marks repeat the call); normalized cell count, %; measured here: cell count, toxicity; reference of the scale not given here;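 cells exposed to compound for 48 h; stained nuclei by imaging scaled within each plate; lower means fewer cells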
HSV replic up primary fold – second read-out of HSV replic up, no call of its own (marks repeat the call); fold increase; compound at 10 µM; measured here: primary screen fold increase 10 uM; tested in PC3 cells;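 GFP signal in the first replicate; 1 = infected wells without compound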
Numbers without * were called inactive; i = inactive; . = no result given.

Start of the data: the first seven compounds as a preview:
SMILES	HSV replic up	HSV replic up primary fold	RGS16-Gao HTS	GALR2 agonist	Insulin prom inh	Insulin prom inh cell count	PKD1 inh
CCC(C)(C)n1nnnc1C(c1ccncc1)N1CCC(Cc2ccccc2)CC1 (centres undefined)	i	0.92	94	0.5	-233	55	1
Cc1cc(=O)oc(C)c1C(=O)NCCC(C)C	i	1.1	104	-0.6	18	76	6
COc1ccccc1OCC(=O)NCCNC(=O)COc1ccccc1OC	i	0.81	104	-1.0	.	.	-19
CSc1nc(C)c2c(n1)N(c1cccc(C)c1)CC2	i	0.95	102	-0.1	26	93	5
C#CCSc1nccc(-c2nn(-c3ccc(C)cc3)ccc2=O)n1	i	0.94	99	-1.6	.	.	-4
COc1ccc(-n2c(C)cc(-c3cn4cccc(C)c4n3)c2C)cc1	i	0.99	98	.	-89	86	-5
COc1ccc(N(CC(=O)Nc2cccc(SC)c2)S(C)(=O)=O)cc1Cl	i	0.99	109	-0.2	-58	104	0

The list itself, from the start:
SMILES	HSV replic up	HSV replic up primary fold	RGS16-Gao HTS	GALR2 agonist	Insulin prom inh	Insulin prom inh cell count	PKD1 inh
CCC(C)(C)n1nnnc1C(c1ccncc1)N1CCC(Cc2ccccc2)CC1 (centres undefined)	i	0.92	94	0.5	-233	55	1
Cc1cc(=O)oc(C)c1C(=O)NCCC(C)C	i	1.1	104	-0.6	18	76	6
COc1ccccc1OCC(=O)NCCNC(=O)COc1ccccc1OC	i	0.81	104	-1.0	.	.	-19
CSc1nc(C)c2c(n1)N(c1cccc(C)c1)CC2	i	0.95	102	-0.1	26	93	5
C#CCSc1nccc(-c2nn(-c3ccc(C)cc3)ccc2=O)n1	i	0.94	99	-1.6	.	.	-4
COc1ccc(-n2c(C)cc(-c3cn4cccc(C)c4n3)c2C)cc1	i	0.99	98	.	-89	86	-5
COc1ccc(N(CC(=O)Nc2cccc(SC)c2)S(C)(=O)=O)cc1Cl	i	0.99	109	-0.2	-58	104	0
COc1cccc(/C=N/Nc2nnc(C)n2N)c1OCc1ccccc1Cl	i	0.91	103	-0.8	.	.	20
NCC(=O)NCC(=O)OCc1ccccc1	i	0.97	89	.	-129	28	1
C=CCn1c(CC(=O)OC)csc1=Nc1ccc(C(C)=O)cc1	i	0.84	98	-0.6	42	121	5
Cn1c(CNc2cccc(C(F)(F)F)c2)n[nH]c1=S	i	0.82	105	.	.	.	-1
C=CCOc1ccc(Cl)cc1C(=O)O	i	0.64	101	-2.0	-422	8	-2
O=[N+]([O-])c1ccc(Cl)cc1N1CCCCC1	i	0.61	108	.	.	.	-6
Cc1ccc(NC(=O)Cn2nc(C(F)(F)F)c3c2CCC3)cc1	i	1	91	-3.0	-63	71	-3
CCCCNC(=O)C1CC(c2c(Cl)cccc2Cl)=NO1 (centres undefined)	i	0.79	105	1.0	-9	126	-6
COCCCN1C(=O)C(=O)/C(=C(/O)c2ccc(OC(C)C)cc2)C1c1cccnc1 (centres undefined)	i	0.91	62	-1.5	.	.	-8
CC(=O)OC1COC(n2ccc3cc([N+](=O)[O-])ccc32)C(OC(C)=O)C1OC(C)=O (centres undefined)	i	1	103	-1.4	13	119	-11
COCc1cc(N2CCN(c3ccccc3F)CC2)nc(-c2ccccc2)n1	i	0.92	94	.	40	122	-1
CCC(C)N(C)C1CCN(C(=S)Nc2cccc(OC)c2)CC1 (centres undefined)	i	0.9	99	.	12	89	-1
O=C(Nc1cccc(C(=O)N2CCCC2)c1)c1ccccc1Cl	i	0.88	110	0.4	17	54	-2
CSc1nc2nc3c(cn2n1)C(=O)CC(c1ccccc1)C3 (centres undefined)	i	1	105	-2.3	-238	80	-2
O=C(NNC(=O)c1cc(-c2ccccc2)nn1-c1ccccc1)c1ccccc1	i	0.87	109	-1.6	38	154	0
CCOC(=O)N1CCC(NC(=O)c2cc3c(=O)[nH]c4ccccc4c3n2C)CC1	i	0.89	104	.	.	.	7
Cc1cc(Br)ccc1OCC(=O)NNC(=O)c1ccc(NC(=O)C2CC2)cc1	.	.	99	-2.4	66	83	-9
Cc1cccc(/N=C/c2c(O)ccc3oc4c(c23)CCCC4)n1	i	1.1	105	-1.1	-36	131	6

Reprinted at random: two compounds from above, in no set order.
SMILES	HSV replic up	HSV replic up primary fold	RGS16-Gao HTS	GALR2 agonist	Insulin prom inh	Insulin prom inh cell count	PKD1 inh
O=C(NNC(=O)c1cc(-c2ccccc2)nn1-c1ccccc1)c1ccccc1	i	0.87	109	-1.6	38	154	0
CSc1nc(C)c2c(n1)N(c1cccc(C)c1)CC2	i	0.95	102	-0.1	26	93	5

Other records
SMILES	HSV replic up	HSV replic up primary fold	RGS16-Gao HTS	GALR2 agonist	Insulin prom inh	Insulin prom inh cell count	PKD1 inh
COc1ccc(/C=C/C(=O)Oc2cccc(/C=N/NC(=O)Cc3ccc(Br)cc3)c2)cc1	i	1	98	.	.	.	.
COc1cccc(CNc2nc3nc(C)c(Cl)c(=O)n3[nH]2)c1	i	1.1	101	.	.	.	.
NC(=O)c1ccccc1NS(=O)(=O)c1cccs1	i	0.92	106	-2.4	-462	54	3
Cc1cccc(-n2cnc3cc([N+](=O)[O-])ccc32)c1	i	0.89	95	0.0	.	.	1
COc1ccc2nc(N/C(N)=N/S(C)(=O)=O)nc(C)c2c1	i	1	101	.	.	.	.
Cc1nc([N+](=O)[O-])c(Sc2nc3ccc([N+](=O)[O-])cc3[nH]2)n1Cc1ccccc1	i	0.54	101	-1.2	-4	75	-3
Cc1cn2c(nc1=O)OC1C(O)C(COC(=O)c3ccccc3)OC12 (centres undefined)	i	0.91	104	-2.6	.	.	7
NS(=O)(=O)c1ccc(CCNC(=O)Cc2c[nH]c3ccccc23)cc1	i	0.88	57	-2.7	-31	104	7
COC(=O)c1ccc(CSc2nc3c(c(=O)n2-c2ccc(F)cc2)SCC3)o1	i	0.85	108	0.8	-3	161	2
CCN1CCN(Cc2ccc(NC(=O)Nc3ccc(SC)cc3)cc2)CC1	i	0.79	101	-0.5	-52	123	-8
N#CCCN1CCN(S(=O)(=O)c2ccc(S(=O)(=O)N3CCOCC3)cc2)CC1	i	0.95	100	0.1	30	56	-5
COC(=O)[C@@H]1CCCN1Cc1nc(Cc2ccccc2F)no1	i	0.86	86	.	-40	85	4
COc1ccc(CN(CC2CCCO2)S(=O)(=O)c2ccc(-n3cnnn3)c(OC)c2)cc1 (centres undefined)	i	1	103	.	.	.	-3
Cc1ccccc1CSc1nnc(C)n1N	i	0.97	103	-4.0	-109	102	1
COc1ccc(NC(=O)Cn2ccc3c(OC)cccc3c2=O)cc1	i	1	97	.	.	.	.
CCN(CC)C(=O)C(=O)c1cn(CC(=O)NCc2ccc3c(c2)OCO3)c2ccccc12	i	0.95	99	.	.	.	-3
Cc1ccc(CC2CC(=O)N(CCc3ccc4c(c3)OCO4)C2=O)cc1 (centres undefined)	i	0.91	100	-0.7	.	.	0
C=CCCCCCCCCC(=O)Nc1ncccn1	i	0.87	100	.	.	.	.
CCc1nnc(NC(=O)CSc2ccc(-c3ccc(C)cc3)nn2)s1	i	1	95	.	16	105	-6
CS(=O)(=O)N1CCCC(C(=O)N2CCOCC2)C1 (centres undefined)	i	1	98	-1.1	.	.	1
CCn1ncc(/C=N/N=C2\CCC3C4CCc5cc(O)ccc5C4CCC23C)c1C (centres undefined)	i	0.84	106	0.2	-15	63	-3
C=CCOc1c(Br)cc(C2C3=C(CCCC3=O)N(C)C3=C2C(=O)CCC3)cc1OCC	i	1.1	102	1.4	-16	70	-10
CCSc1ncc(C#N)c(N)n1	i	0.93	105	10	-9	101	-2
Cc1ccc(C(=O)NCc2cccnc2)cc1S(=O)(=O)Nc1ccccc1	i	0.98	100	.	-10	120	-3
CC(N=c1ccccn1C(=O)Nc1ccc(Cl)cc1)c1ccco1 (centres undefined)	i	1.2	97	-2.7	.	.	1
SMILES	HSV replic up	HSV replic up primary fold	RGS16-Gao HTS	GALR2 agonist	Insulin prom inh	Insulin prom inh cell count	PKD1 inh
CCOC(=O)N1CCN(C(=O)COC(=O)c2ccc(O)cc2O)CC1	i	1	105	.	-40	56	8
O=C(Nc1nc2ccccc2[nH]1)c1ccccc1[N+](=O)[O-]	i	0.97	111	.	-22	80	-12
CC(C(=O)N1CCOCCOCCOCC1)N1C(=O)c2ccccc2C1=O (centres undefined)	i	0.94	99	.	-65	137	-4
CCCCC(=O)Nc1cccc2c1C(=O)N(c1ccccc1)C2=O	i	1.1	120	-0.9	31	79	-5
O=C(O)c1ccc(NS(=O)(=O)c2ccc3nnn(O)c3c2)cc1	i	0.91	125	-1.9	16	113	-1
O=C(CN1CCN(C(=O)c2cccs2)CC1)NC1CCCCC1	i	0.93	103	-1.9	.	.	-8
COC1(OC)C(/C=C/c2ccc(Cl)cc2)C(C#N)(C#N)C1(OC)OC (centres undefined)	i	0.54	93	-3.6	69	124	0
CC(C)c1cc(NCC2CCCO2)n2c(nc3ccccc32)c1C#N (centres undefined)	i	0.85	102	1.9	-79	172	0
CCOc1cc(C)c(Cl)cc1S(=O)(=O)N(CC)CC	i	1	98	0.1	-55	126	-4
COc1ccc(C(=O)CN2C3=NCCCN3c3ccccc32)cc1OC	i	0.86	103	-2.1	50	102	-9
Cc1nc2ccccc2c(=O)n1NC(=O)Nc1ccccc1	i	0.93	102	-1.0	-33	98	1
O=C(NCc1ccco1)c1ccc2c(=O)n(CC3CCCO3)c(=S)[nH]c2c1 (centres undefined)	i	1	103	-2.6	16	94	-7
CC(C)OP(=O)(OC(C)C)C(Nc1ccccc1)c1cccc([N+](=O)[O-])c1 (centres undefined)	i	1.3	101	.	.	.	.
Cn1nc(-c2ccccc2)c(-c2nc(-c3ccc(Cl)cc3)no2)c1Cl	i	0.95	103	-2.3	-471	71	6
CCc1cc(C(=O)N2CCCC(CNS(=O)(=O)c3cccs3)C2)n(C)n1 (centres undefined)	i	0.88	117	.	.	.	8
O=C(/C(Br)=C/Nc1cc(Cl)ccc1Cl)C(F)(F)F	i	0.95	105	1.5	-27	105	9
CN(CC(=O)NCC1CCCO1)S(=O)(=O)c1cc(Cl)ccc1Cl (centres undefined)	i	0.98	98	0.4	30	102	1
O=C(NCC1CCCO1)c1cc([N+](=O)[O-])ccc1Cl (centres undefined)	i	0.71	106	.	.	.	-2
Cc1ccc(NC(=S)NCc2ccc3c(c2)OCO3)cc1C	i	0.94	101	-0.6	13	122	-2
Cc1ccc2oc(=O)n(CCCOc3ccccc3)c2c1	i	0.81	99	-0.9	.	.	-3
Cc1ccc(N(CC(=O)N2CCN(c3ccc(F)cc3)CC2)S(=O)(=O)c2c(C)nn(C)c2C)cc1	i	0.94	99	-2.0	.	.	-12
CC(C)c1ccc(/C=C/C(=O)N2CCCCCC2)cc1	i	0.85	97	-1.0	6	145	-9
CCOC(=O)Cn1cc(C(=O)OC)c2ccccc21	i	1	102	-1.9	.	.	-6
COC(=O)C(NC(=O)c1ccccc1)(Nc1nc(C)cs1)C(F)(F)F (centres undefined)	i	0.99	111	-1.9	.	.	-2
Cc1cc(=O)[nH]c(=S)n1-c1ccccc1	i	0.88	108	-1.4	-6	130	-10
SMILES	HSV replic up	HSV replic up primary fold	RGS16-Gao HTS	GALR2 agonist	Insulin prom inh	Insulin prom inh cell count	PKD1 inh
CCOc1ccccc1NC(=O)c1cccc2c1C(=O)N(CCOC)C2	i	0.84	110	-2.0	.	.	1
COCCN1Cc2c(sc(C)c2C)N(C(=O)c2ccccc2)C1	i	1	97	-1.0	.	.	-12
CCCn1c(C)cs/c1=N\C(=S)Nc1ccccc1	i	0.91	100	0.7	-3	87	-4
CC(NC(=O)c1ccc(N(C)C)cc1)C1CC2CCC1C2 (centres undefined)	.	.	97	-2.7	3	132	0
CC1CC(Nc2ccccc2)c2ccccc2N1C(=O)c1ccncc1 (centres undefined)	i	1.3	103	.	6	61	-6
COc1ccc(OCC(=O)N/N=C2\CCc3ccccc32)cc1	i	0.99	94	-1.4	33	171	-2
COC(=O)N/N=C\c1ccc(OC(=O)c2ccco2)cc1	i	0.92	105	.	62	126	-2
Cc1cccc(OCC(=O)Nc2ccc(S(=O)(=O)N3CCN(C)CC3)cc2)c1	i	0.94	101	-1.8	-383	44	-4
COc1ccc(-c2nnc(SCc3nnc(-c4cccs4)o3)n2CC2CCCO2)cc1 (centres undefined)	i	1	106	0.4	-6	107	-3
NC(=O)C1CCN(C(=O)CSc2ccccn2)CC1	i	0.95	102	-0.2	47	78	-3
CSc1nc2sc3c(c2c(=O)[nH]1)CCCC3	i	0.87	113	0.1	28	180	2
CC(C)(C)NC(=O)NC(=O)CN1CCN(S(=O)(=O)c2ccc3c(c2)OCCO3)CC1	i	1.1	105	.	.	.	.
